Bioassay records as filed in PubChem BioAssay.
AF4-AF9 inh: inhibitors of AF4 peptide binding to AF9, primary screen, biochemical, AlphaScreen, biotin-AF4 peptide, FLAG-AF9, single point; inhibition, % at 10 µM; AID 651704, 2012; Protein AF-9 (Homo sapiens), P42568; 350,000 tested, 0.47% active;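 active = every replicate reaching a set inhibition limit, whatever the replicate mean, cut at about 25% in these data; inconclusive = mean inhibition reaches that limit but some replicates miss it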;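 note: 0% = plate neutral control median and 100% = total signal loss; the record names both 10 and 1 µM as test concentration; the first replicate is given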
Target sequence (P42568 whole entry, looked up): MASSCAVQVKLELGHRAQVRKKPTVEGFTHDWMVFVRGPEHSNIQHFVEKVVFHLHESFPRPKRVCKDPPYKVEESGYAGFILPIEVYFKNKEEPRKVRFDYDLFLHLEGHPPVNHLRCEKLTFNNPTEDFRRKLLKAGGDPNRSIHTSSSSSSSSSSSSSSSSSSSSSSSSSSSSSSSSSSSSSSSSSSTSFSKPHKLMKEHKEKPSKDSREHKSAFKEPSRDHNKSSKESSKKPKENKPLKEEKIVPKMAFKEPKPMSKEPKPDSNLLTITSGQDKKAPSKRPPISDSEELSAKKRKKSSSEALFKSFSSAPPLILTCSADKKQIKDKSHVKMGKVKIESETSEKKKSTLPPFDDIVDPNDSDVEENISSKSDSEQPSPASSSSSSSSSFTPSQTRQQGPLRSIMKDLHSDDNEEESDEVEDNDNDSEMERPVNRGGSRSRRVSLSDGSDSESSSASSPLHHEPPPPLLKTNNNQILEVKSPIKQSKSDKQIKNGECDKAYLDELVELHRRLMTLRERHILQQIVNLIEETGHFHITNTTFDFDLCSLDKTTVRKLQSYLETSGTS
rRNA inh HTS: reduced GFP signal of wild-type E. coli, primary screen, bacterial rRNA inhibitor project, GFP/RFP fluorescence, OD600, single point | AID 720706, 2013 | 350,000 tested, 1.6% active | GFP signal change (wild-type ribosome), % (concentration not given with the values) | E. coli WT GFP vs humanized-ribosome RFP mutants, 24 h; stronger effect = lower value; DMSO median 0, no signal -100;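 active = significant combined selectivity score with lowered wild-type GFP, culture density cut under 30%, mutant RFP and density less affected; inactive = any of these conditions unmet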; note: one replicate is shown; some compounds called inactive have numbers as strong as hits
FGF22 binding: binders of human FGF22 protein, primary screen, FGF22 synaptogenesis inhibitor project, biophysical, thermal shift, single point; Fibroblast growth factor 22 (Homo sapiens), Q9HCT0; recombinant FGF22 thermal shift, SYPRO orange fluorescence; percent of sucrose octasulfate shift, DMSO zero; calls only at 9.99 µM; 340,000 tested, 1.5% active;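 active = melting point raised past a set limit in the mean and every replicate; inconclusive = no clear call; three in four hits are not shown here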
Target sequence (Q9HCT0 whole entry, looked up): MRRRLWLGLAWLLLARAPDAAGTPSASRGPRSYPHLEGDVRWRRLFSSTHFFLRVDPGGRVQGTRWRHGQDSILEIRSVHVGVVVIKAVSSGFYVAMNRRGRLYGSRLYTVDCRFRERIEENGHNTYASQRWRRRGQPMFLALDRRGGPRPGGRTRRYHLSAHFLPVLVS
rRNA inh HTS OD600: recorded beside rRNA inh HTS, whose call it bears; OD600 change, %; measured here: OD600 growth;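 optical density of the mix in the first replicate; 0 = DMSO median and -100 = no signal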
rRNA inh HTS RFP: recorded beside rRNA inh HTS, whose call it bears; RFP signal change, %; measured here: RFP humanized mutant strains;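 first replicate; 0 = DMSO median and -100 = no signal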
* hit, by the source's call; i = inactive; ? = inconclusive; nt = not tested or not shown; & = joins results of further samples.

Each structure is followed by: AF4-AF9 inh	rRNA inh HTS	rRNA inh HTS OD600	rRNA inh HTS RFP	FGF22 binding
O=C(O)C1(Nc2ccc([N+](=O)[O-])cc2[N+](=O)[O-])CCCC1
→ 5.4	-16*	7.5*	1.3*	i
CCC(=O)N1C[C@H](C)[C@@H](OC)CN(C)C(=O)c2ccc(NC(=O)c3ccc(F)cc3)cc2OC[C@H]1C
→ -1.0	-2	-4	-1.0	i
C[C@@H]1CN([C@H](C)CO)C(=O)c2cc(Br)cnc2O[C@H]1CN(C)C(=O)C1CCOCC1
→ -0.9	2	6	-0.1	i
C[C@H]1CN([C@@H](C)CO)C(=O)Cc2cc(NC(=O)C3CCCCC3)ccc2O[C@@H]1CN(C)S(=O)(=O)c1cn(C)cn1
→ -3.4	5	5	-0.3	i
CCCNC(=O)c1cc(C2CCCN(C(=O)C3CC3)C2)on1 (configuration not stated)
→ -1.3	6	9	-3.7	i
C[C@H]1CN([C@@H](C)CO)C(=O)c2cccc(NC(=O)C3CC3)c2O[C@@H]1CN(C)Cc1ccc(Oc2ccccc2)cc1
→ 4.0	-1	3	1.5	i
CCCCn1nnnc1C(c1ccccc1)N1CCN(c2ccc(C(F)(F)F)cc2[N+](=O)[O-])CC1 (configuration not stated)
→ 3.8	13	7	-3.4	i
O=C(c1ccncc1)N1C[C@@H]2[C@H](c3ccccc31)[C@@H](CO)N2C(=O)c1ccccc1F
→ 1.3	1	4	2.2	i
C[C@H]1CN([C@@H](C)CO)C(=O)c2cccc(NS(=O)(=O)c3ccc(Cl)cc3)c2O[C@@H]1CN(C)Cc1ccccc1
→ -1.1	-1	1	2.7	i
O=C(C(=O)N1CCN(C(=O)c2ccco2)CC1)c1ccccc1
→ -7.6	7	14	3.1	i

An excerpt from above in order of count of non-hydrogen atoms, lowest first:
Each structure is followed by: AF4-AF9 inh	rRNA inh HTS	rRNA inh HTS OD600	rRNA inh HTS RFP	FGF22 binding
CCCNC(=O)c1cc(C2CCCN(C(=O)C3CC3)C2)on1 (configuration not stated)
→ -1.3	6	9	-3.7	i
O=C(C(=O)N1CCN(C(=O)c2ccco2)CC1)c1ccccc1
→ -7.6	7	14	3.1	i
CCC(=O)N1C[C@H](C)[C@@H](OC)CN(C)C(=O)c2ccc(NC(=O)c3ccc(F)cc3)cc2OC[C@H]1C
→ -1.0	-2	-4	-1.0	i
C[C@H]1CN([C@@H](C)CO)C(=O)c2cccc(NS(=O)(=O)c3ccc(Cl)cc3)c2O[C@@H]1CN(C)Cc1ccccc1
→ -1.1	-1	1	2.7	i
C[C@H]1CN([C@@H](C)CO)C(=O)Cc2cc(NC(=O)C3CCCCC3)ccc2O[C@@H]1CN(C)S(=O)(=O)c1cn(C)cn1
→ -3.4	5	5	-0.3	i

Additional records.
Each structure is followed by: AF4-AF9 inh	rRNA inh HTS	rRNA inh HTS OD600	rRNA inh HTS RFP	FGF22 binding
CCOC(=O)c1cc2c(c(-c3cccc(-c4cc5ccccc5o4)c3)n1)[C@@H](CCO)N(S(=O)C(C)(C)C)C2 (some centres not stated)
→ 4.6	-30	-13	15	i
CC(C)CC#Cc1ccc([C@@H]2[C@H](CO)N3C(=O)CN(C(=O)c4cccc(F)c4)C[C@@H]23)cc1
→ -1.4	-16	-52	26	i
COc1ccc(S(=O)(=O)Nc2ccc3c(c2)C(=O)N([C@H](C)CO)C[C@H](C)[C@@H](CN(C)S(=O)(=O)c2c(C)noc2C)OCCCC[C@@H](C)O3)cc1
→ -0.4	1	-6	-1.3	i
COC(=O)C[C@H]1C[C@H]2c3cc(N(C)C)ccc3O[C@H]2[C@H](CO)O1
→ -0.4	0	-1	0.6	i
COc1cccc(CNC(=O)C[C@@H]2C=C[C@@H](NS(=O)(=O)c3ccccc3OC)[C@H](CO)O2)c1
→ -0.8	0	-2	-0.2	i
CCCC(=O)N1CCC2(CC1)CN(C(=O)Cc1ccccn1)[C@H](CO)c1[nH]c3cc(OC)ccc3c12
→ -3.7	1	5	-1.1	i
C[C@@H]1CN([C@H](C)CO)C(=O)Cc2cc(NS(C)(=O)=O)ccc2O[C@@H]1CN(C)CC1CCCCC1
→ -2.8	1	3	-0.5	i
C[C@@H]1CN([C@@H](C)CO)C(=O)c2cc(NC(=O)CCCN(C)C)ccc2O[C@@H]1CN(C)S(=O)(=O)c1ccc(F)cc1
→ -1.1	5	12	0.9	i
CO[C@H]1CN(C)C(=O)c2ccc(NC(=O)c3cnccn3)cc2OC[C@@H](C)N(CC2CC2)C[C@@H]1C
→ -1.9	3	1	-1.3	i
CNc1cccc(-c2cc(OC)ccc2OC)n1
→ 3.3	-3	-4	-0.4	i
CCOC(=O)C1=CCN(S(=O)(=O)c2ccc(F)cc2)C1c1cccc(C)c1 (configuration not stated)
→ -0.4	-4	-31	-9.2	nt
CNC[C@@H]1Oc2c(NS(=O)(=O)c3cn(C)cn3)cccc2C(=O)N([C@@H](C)CO)C[C@@H]1C
→ -6.9	2	1	0.0	i
C[C@@H]1CN([C@H](C)CO)C(=O)c2cccc(NC(=O)Nc3ccc4c(c3)OCO4)c2O[C@H]1CN(C)S(=O)(=O)c1cccs1
→ 1.7	1	-3	3.9	i
COc1cccc(CNc2nc3cc(-c4ccc(OC)cc4C)sc3c(=O)n2C)c1
→ -0.8	14	2	4.1	i
C[C@H]1CN([C@@H](C)CO)C(=O)Cc2cc(NC(=O)c3ccncc3)ccc2O[C@@H]1CN(C)C(=O)NC1CCCCC1
→ -2.2	2	-2	-0.3	i
Cc1ccc(S(=O)(=O)N(C)C[C@@H]2Oc3ccc(NC(=O)C4CC4)cc3C(=O)N([C@@H](C)CO)C[C@@H]2C)cc1
→ -1.0	2	8	-2.8	i
COc1ccc(-c2ccccc2[C@@H]2[C@@H](C#N)N(C(=O)NC(C)C)[C@H]2CO)cc1
→ -1.6	-1	5	-1.0	i
C[C@@H]1CN([C@@H](C)CO)C(=O)c2cc(NC(=O)Cc3cn(C)c4ccccc34)ccc2O[C@H]1CN(C)Cc1ccccc1
→ 4.4	0	2	3.6	i
O=C(C[C@@H]1C[C@@H]2c3cc(NC(=O)C4CCC4)ccc3O[C@@H]2[C@H](CO)O1)NCc1ccncc1
→ -2.6	2	3	-5.5	i
CCCNC(=O)Nc1ccc2c(c1)OC[C@H](C)N(Cc1ccncc1)C[C@H](C)[C@@H](OC)CN(C)C2=O
→ -1.6	-2	-4	0.0	i
COC(=O)Cn1c(C(=O)N2CCCC2)cc2c1C[C@H]1CN(C(=O)c3ccccc3)[C@@](Cc3ccc(OC)cc3)(C(=O)OC)[C@@H]21
→ 5.7	-11	-3	0.7	i
O=C(C[C@@H]1CC[C@@H](NC(=O)Cc2ccccn2)[C@@H](CO)O1)NCCc1ccncc1
→ 1.4	0	-3	-2.7	i
C[C@@H]1CN([C@@H](C)CO)C(=O)CCCn2nncc2CO[C@@H]1CN(C)C(=O)Nc1ccccc1
→ -2.9&0.0	0&1	10&-1	-4.1&-3.0	i
Cc1nc(N)nc(N)c1-c1ccc(Cl)c(Cl)c1
→ 5.2	-16	-8	-6.7	i
C[C@@H]1CCCCO[C@H](CN(C)Cc2ccc3c(c2)OCO3)[C@H](C)CN([C@@H](C)CO)C(=O)c2cc(NC(=O)NC3CCCCC3)ccc2O1
→ 12	-2	-14	5.4	i
COc1ccc(NC(=O)c2cc(C3CCCCN3S(=O)(=O)c3cccs3)on2)c(C)c1 (configuration not stated)
→ 0.8	-3	-15	-1.5	i
CC(=Nc1ccccc1)C1=C(O)C(CC(C)C)NC1=O (configuration not stated)
→ -4.1	-4	-4	-0.5	i
O=C(Nc1ccc(-c2ccccc2)cc1)[C@H]1[C@H](CO)[C@H]2Cn3c(cccc3=O)[C@H]2N1CC1CCOCC1
→ -0.4	-10	-32	0.2	i
O=C(C[C@H]1C=C[C@H](NC(=O)c2ccccc2)[C@@H](CO)O1)NCc1ccc(Oc2ccccc2)cc1
→ -8.8	1	5	-1.6	i
CCN(C[C@H]1N[C@@](C)(C(=O)OC)[C@H]2C(=O)N(C)C(=O)[C@@H]12)C(=O)C1CCCCC1
→ -1.1	3	14	-0.4	i
COCC(=O)Nc1ccc2c(c1)OC[C@H](C)N(C)C[C@H](C)[C@H](OC)CN(C)C2=O
→ -1.4	3	7	1.1	i
CCCNC(=O)C[C@H]1CC[C@@H]2[C@H](COC[C@H](O)CN2C(=O)CC)O1
→ -1.9	-1	3	-2.6	i
O=C(Cn1cnc2c(OCc3ccccc3)ncnc21)NCCc1c[nH]c2ccccc12
→ 0.6	2	16	0.8	i
COc1cccc(S(=O)(=O)N2C[C@H](O)COC[C@@H]3O[C@@H](CC(=O)N4CCOCC4)CC[C@H]32)c1
→ 1.1	2	17	0.2	i
COc1ccccc1C#Cc1ccc2c(c1)O[C@@H](CN(C)C(C)=O)[C@@H](C)CN([C@@H](C)CO)S2(=O)=O
→ 3.3	2	-9	5.6	i
NCC[C@@H]1CC[C@@H](NC(=O)C2CCC2)[C@@H](CO)O1
→ -0.7	0	0	-2.9	i
Cc1noc(C)c1NC(=O)N(C)C[C@@H]1Oc2cc(C#CCC3CCCC3)ccc2S(=O)(=O)N([C@H](C)CO)C[C@H]1C
→ ?	-1	-31	12	i
C[C@H](CO)N1C[C@H](C)[C@@H](CN(C)Cc2ccncc2)Oc2ccc(NS(=O)(=O)c3ccc(F)cc3)cc2CC1=O
→ 4.9	-5	-6	1.8	i
O=C(C[C@H]1CC[C@@H](NC(=O)c2ccncc2)[C@H](CO)O1)Nc1ccccc1
→ -1.6	2	6	-4.6	i
O=C(C[C@@H]1C=C[C@H](NC(=O)C2CCC2)[C@H](CO)O1)NC1CCCCC1
→ -9.1	2	6	1.2	i
CCCCNC(=O)C1c2ccccc2OCC(=O)N1Cc1ccccc1 (configuration not stated)
→ 1.1	3	-1	5.1	i
COCCCNC(=O)c1ccc2sc(C3=C[C@@H](O)[C@@H](O)[C@@H](CO)O3)nc2c1
→ 1.9	13	18	2.7	i
CCOC(=O)N1CCN(C(=O)c2ccc(CS(=O)c3cccc(C)c3)o2)CC1 (configuration not stated)
→ 0.1	-2	0	-4.8	i
CO[C@H]1CN(C)C(=O)c2cc(NC(=O)c3ccc4c(c3)OCO4)ccc2OC[C@H](C)N(CC2CC2)C[C@H]1C
→ -0.2	0	0	-2.8	i
CCCCCC(=O)N1C[C@H](O)[C@@H](n2cc(C3CC3)nn2)C[C@@H]1c1ccc(OC)cc1
→ -1.3	-7	-6	-0.1	i
C[C@@H]1CN([C@@H](C)CO)C(=O)c2cc(NC(=O)NC3CCCCC3)ccc2O[C@@H](C)CCCCO[C@H]1CN(C)CC1CC1
→ 8.2	5	3	-0.7	i
CC(C)NC(=O)Nc1cccc2c1O[C@@H](CN(C)CC1CCCCC1)[C@H](C)CN([C@@H](C)CO)C2=O
→ 3.4	-11	-20	0.6	i
O=C(NCCc1ccncc1)[C@@H]1[C@@H](CO)[C@@H]2Cn3c(ccc(-c4cccc(F)c4)c3=O)[C@H]1N2
→ -5.4	2	11	1.3	i
O=C([C@H]1[C@H](CO)[C@H]2Cn3c(ccc(C4=CCCCC4)c3=O)[C@@H]1N2)N1CCC(Cc2ccccc2)CC1
→ 2.4	-8	-14	-1.9	i
CN(CCCn1ccc(NC(=O)OCc2ccccc2)nc1=O)CCc1ccccn1
→ 3.3	10	12	-3.0	i

(next part)
Each structure is followed by: AF4-AF9 inh	rRNA inh HTS	rRNA inh HTS OD600	rRNA inh HTS RFP	FGF22 binding
COc1ccc(S(=O)(=O)Nc2ccc3c(c2)C(=O)N([C@H](C)CO)C[C@@H](C)[C@@H](CN(C)CC2CCCCC2)O3)cc1
→ -0.2	3	-3	-1.7	i
CO[C@@H]1CN(C)C(=O)c2ccc(NS(=O)(=O)c3cccc(C)c3)cc2OC[C@@H](C)NC[C@H]1C
→ -2.3	2	2	0.6	i
C[C@@H]1CN([C@H](C)CO)C(=O)c2cc(NC(=O)Nc3ccccc3)ccc2O[C@@H]1CN(C)Cc1ccc(Oc2ccccc2)cc1
→ -1.0	4	1	8.0	i
COc1cccc(S(=O)(=O)Nc2ccc3c(c2)C(=O)N(C)C[C@@H](OC)[C@@H](C)CN(Cc2ccccc2F)[C@@H](C)CO3)c1
→ 4.4	-3	-18	6.9	i
O=[N+]([O-])c1ccc(CSCc2ccc([N+](=O)[O-])cc2)cc1
→ -1.2	12	14	2.7	i
CCOc1ccc2oc(C(=O)Nc3ccc(C)cn3)c(C)c2c1
→ 1.7	5	5	-5.2	i
C[C@@H]1CN([C@@H](C)CO)C(=O)c2cccc(N(C)C)c2O[C@@H]1CN(C)S(=O)(=O)c1ccc(Cl)cc1
→ 3.2	3	-9	-2.0	i
O=C(NCCc1ccccc1)[C@@H]1[C@@H](CO)[C@@H]2Cn3c(cccc3=O)[C@@H]2N1Cc1ccncc1
→ 1.2	3	4	-1.8	i
CCCCNC(=O)C[C@@H]1C[C@@]2(C(=O)OC)CCCCC=C2N(Cc2ccccc2)C1=O
→ -3.0	-22*	-15*	1.3*	i

Some of the compounds tested; the hit share may differ from the screen's.
